# Compound activity from PubChem.
# TDP1 cell CPT: DT40-hTDP1 cell growth loss with CPT; chicken DT40 Tdp1-/-;hTDP1 cells + 20 nM CPT, ATP luminescence, 48 h; Potency, µM (doses to about 46.2 µM), without a hit: at the top dose activity change, negative = growth inhibition, most hits filed as inhibitors; 12% of 420,000 active; AID 686979; also: nearly all actives have a fitted effect of over 55% in size
#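 Chicken DT40 Tdp1-/- cells stably complemented with human TDP1 were seeded at 400 cells/well in medium containing 20 nM camptothecin, exposed to pin-transferred compounds, and grown at 37 °C for at least 48 hr. Viability was read as ATP luminescence.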
# FEN1 inhibitor: human FEN1 inhibition | Potency, µM (highest dose often 114 µM), for inactives: top-dose activity change, negative = inhibition, most hits filed as inhibitors | Recombinant FEN1 flap cleavage, fluorescence, 15 min | 0.35% of 390,000 active | P39748 | AID 588795; also: nearly all actives have a fitted effect of over 65% in size
# Target sequence (P39748 whole entry, looked up): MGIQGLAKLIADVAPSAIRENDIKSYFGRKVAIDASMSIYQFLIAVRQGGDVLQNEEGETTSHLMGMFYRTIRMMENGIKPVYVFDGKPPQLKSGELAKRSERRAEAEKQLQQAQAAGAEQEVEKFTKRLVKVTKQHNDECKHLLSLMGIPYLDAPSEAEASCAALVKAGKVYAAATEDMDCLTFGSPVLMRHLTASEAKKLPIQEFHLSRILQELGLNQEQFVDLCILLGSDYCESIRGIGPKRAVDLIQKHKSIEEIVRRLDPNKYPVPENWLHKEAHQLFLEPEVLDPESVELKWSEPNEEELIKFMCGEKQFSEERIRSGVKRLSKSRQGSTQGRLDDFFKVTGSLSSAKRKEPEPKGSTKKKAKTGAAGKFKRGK
#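 FEN1 at 10 nM preincubated with compounds 15 min at room temperature, then flap DNA substrate added at 50 nM final. Signal read at 0 and 15 min; concentration-response fitted with four-parameter Hill equation.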
# * = called active by the depositor; ? = inconclusive; & = joins results of further samples; ! = not confirmed by another sample; [ ] = remark or other dose. Calls follow the shape of the dose curve; as a rule, active = well fitted curve in the direction sought with a large enough effect; inconclusive = small, poorly fitted or top-dose-only effect, or another doubt; inactive = no such curve, though single readings can be large; an effect the other way counts as inactive or inconclusive. % is scaled to controls: 0 for no effect and ±100 for the full control effect; potency is read from the fitted curve at half-maximal effect.
# Each structure is followed by: TDP1 cell CPT | FEN1 inhibitor
- COc1cccc(C(=O)Nc2ccccc2N2CCCC2)c1
    18.4µM* | -9.3%
- COc1cc(C2C(C#N)=C(C)NC3=C2C(=O)CC(C)(C)C3)ccc1OCCO (stereo not given)
    -17.0% | -0.7%
- Cc1ccc(N2C(=O)SC(N(CC(=O)O)c3cccc(C)c3)C2=O)cc1 (stereo not given)
    -23.8% | -2.3%
- CCC(=O)/C(=C(/O)c1ccccc1)c1nc2ccccc2[nH]1
    -24.3% | 3.8%
- O=C(CN1C(=O)c2ccccc2S1(=O)=O)Nc1ncc([N+](=O)[O-])s1
    -15.2% | -2.7%
- C=CCOc1c(OC)cc(Cl)cc1C1NC(=O)NC(C)=C1C(C)=O (stereo not given)
    -9.8% | 7.7%
- CC(c1ccccc1)n1cc(C(=O)NCC2COc3ccccc3O2)nn1 (stereo not given)
    ? | -1.7%
- COC(=O)Cc1[nH]c(Cl)nc1C(N)=O
    -7.3% | -12.1%
- Cc1cccc(N(C)S(=O)(=O)c2nnc(NC(=O)C3CCCCC3)s2)c1
    ? | -2.5%
- CN1CCN(CC(O)COc2ccc(Cl)cc2)CC1 (stereo not given)
    2.3% | 1.6%
- COC(=O)c1ccccc1NC(=O)COC(=O)c1ccco1
    7.2% | -6.6%
- CC(=O)NNc1ncnc2c1cnn2-c1ccc(C)c(C)c1
    11.7% | 9.7%
- C[C@H](NC(=O)c1[nH]cnc1C(=O)Nc1ccc(CNC(=O)OC(C)(C)C)cc1)C(=O)OCc1ccccc1
    ? | -9.0%
- COc1ccccc1N=C1SC(C(=O)Nc2ccc(F)cc2)CC(=O)N1C (stereo not given)
    18.4% | -11.6%
- COC(=O)c1[nH]c2ccccc2c1NC(=O)/C=C/c1ccc2c(c1)OCO2
    -28.5% | 7.4%
- CCCNc1c(NS(=O)(=O)c2ccc(C(C)(C)C)cc2)c(=O)oc2ccccc12
    ? | -11.8%
- O=C(c1c(Cl)nc2sccn12)N1CCN(c2cccc(Cl)c2)CC1
    2.31µM* | -3.0%
- Cc1ccc(CNC(=O)CNC(=O)[C@@H]2Cc3ccccc3CN2)cc1
    -10.4% | -12.4%
- COC(=O)c1[nH]c2ccc(Cl)cc2c1NC(=O)CN1CCc2cc(OC)c(OC)cc2C1
    ? | -23.0%
- COc1ccc(-c2nc3cccc(C)n3c2NCc2ccco2)cc1OC
    ? | 5.1%
- CCN(CC(=O)Nc1ccc(NC(C)=O)cc1)C(=O)/C=C/c1cn(-c2ccccc2)nc1-c1cccs1
    ? | 9.5%
- COc1cccc(C2CC(=O)Nc3c2c(=O)n(C)c(=O)n3C)c1OC (stereo not given)
    -2.0% | 2.5%
- CC12CCC(C(=O)OC3CCCCC3)(OC1=O)C2(C)C (stereo not given)
    -2.7% | 5.8%
- O=C(NCCc1ccccc1)C1CCN(S(=O)(=O)N2CCOCC2)CC1
    -1.1% | -7.1%
- CCOC(=O)C1C(C(C)=O)=C(c2ccccc2)c2ccccc2N1S(=O)(=O)C(F)(F)F (stereo not given)
    ? | -14.2%
- C/C(N)=C(/C#N)C(=O)CSc1nc2ccccc2c(=O)n1-c1ccc(C)c(Cl)c1
    -0.7% | 1.2%
- CC(C)C(O)C1CCN(Cc2nc(-c3cccs3)no2)CC1 (stereo not given)
    -9.3% | -1.0%
- O=C(Nc1cccn(Cc2c(Cl)cccc2Cl)c1=O)c1c(Cl)cccc1Cl
    ? | -13.9%
- COc1ccc(Nc2nc(-c3cccc([N+](=O)[O-])c3)nc3ccccc23)c(OC)c1
    ? | -9.8%
- COc1ccc(NC(=O)c2oc3ccccc3c2NC(=O)c2ccco2)cc1
    ? | -20.3%

# Reformatted: results already given.
> COc1cccc(C2CC(=O)Nc3c2c(=O)n(C)c(=O)n3C)c1OC (stereo not given)
- TDP1 cell CPT: -2.0%
- FEN1 inhibitor: 2.5%
> CC12CCC(C(=O)OC3CCCCC3)(OC1=O)C2(C)C (stereo not given)
- TDP1 cell CPT: -2.7%
- FEN1 inhibitor: 5.8%
> O=C(NCCc1ccccc1)C1CCN(S(=O)(=O)N2CCOCC2)CC1
- TDP1 cell CPT: -1.1%
- FEN1 inhibitor: -7.1%

# Continuation:
# Each structure is followed by: TDP1 cell CPT | FEN1 inhibitor
- CN(NC(=O)COc1ccccc1)C1=NS(=O)(=O)c2ccccc21
    1.1% | -13.0%
- CCOC(=O)N1CCN(C(=O)CSc2nc(=O)n3cccc(C)c3n2)CC1
    2.1% | -4.0%
- CC(OC(=O)c1ccc(S(=O)(=O)N(C)C)cc1)C(=O)Nc1ccc(Cl)cn1 (stereo not given)
    3.1% | -9.6%
- CCOC(=O)CNC(=O)CSc1ncccc1-c1nc2ccccc2[nH]1
    10.4% | -7.1%
- O=C(CSc1nnc(CNc2ccc(F)cc2)o1)N1c2ccccc2Sc2ccccc21
    20.6µM* | 1.0%
- COc1ccc(NC(=O)CS(=O)CC(=O)Nc2ccc(-n3cnnn3)c(C)c2)cc1 (stereo not given)
    8.4% | 11.9%
- COc1ccccc1NC(=O)NC1(C(=O)N2CCC(O)CC2)CCCCC1
    4.6% | 7.3%
- COC(=O)c1cc(C#N)c(=O)[nH]c1C
    9.6% | 18.3%
- Cc1ccc(OCCN2CCCCCC2)c(C)c1
    -25.1% | -8.6%
- O=C(Nc1ccccc1C(=O)N1CCCCC1)NC1CCCCC1
    1.5% | -0.3%
- CCOCCCn1c(SCC(=O)Nc2ccc(NC(C)=O)cc2)nc2ccccc2c1=O
    -13.4% | -3.2%
- COc1cc(N/C=C2\CC(=O)NC(C)=C2C#N)cc(OC)c1OC
    ? | -11.7%
- O=C(COC(=O)C1CC(=O)N(c2ccc3c(c2)OCCO3)C1)Nc1ccc2c(c1)CCC2 (stereo not given)
    -11.4% | -1.3%
- CCc1nc(CN2CCN(c3ccc(C(F)(F)F)cn3)CC2)c(C)[nH]1
    11.6µM* | -2.4%
- Cc1c(NC(=O)Nc2cccc([N+](=O)[O-])c2)c(=O)n(-c2ccccc2)n1C
    17.6% | -5.2%
- CCOc1ccc(N2C(=O)c3cccnc3C2Nc2ccc(OC)cc2)cc1 (stereo not given)
    -17.0% | -1.9%
- COC(=O)C1C(O)=C(C(C)=Nc2cccc3ccccc23)C(=O)CC1(C)C (stereo not given)
    ? | 14.0%
- COc1ccc(NC(=O)CCNC(=O)Cn2ccc3ccccc3c2=O)cc1OC
    -7.2% | 3.7%
- CCc1ccc(OCCCC(=O)Nc2ccc(S(N)(=O)=O)cc2)cc1
    1.5% | -1.7%
- COc1ccc(C(=O)N(c2ccc(C)cc2)C2C=CS(=O)(=O)C2)cc1OC (stereo not given)
    3.4% | 16.9%
- CC(C)OC(=O)CCNc1n[nH]c(=O)[nH]c1=O
    -12.2% | -1.9%
- O=C(Nc1ccc(N2CCOCC2)cc1)c1ccncc1
    -8.9% | -5.7%
- COc1ccccc1OCCNC(=O)c1ccc(C)o1
    6.2% | 16.9%
- COc1cc(CN2CCCC(CO)(Cc3ccccc3F)C2)ccc1O (stereo not given)
    0.6% | -6.0%
- Cc1ccc(C)c(S(=O)(=O)N2CCC3(CC2)OCCN3S(=O)(=O)c2cccs2)c1
    ? | 2.0%
- Cc1cccc(NC(=S)NCCN2CCOCC2)c1C
    -0.6% | -11.6%
- CN(C(=O)COC(=O)Cn1c(C(F)(F)F)nc2ccccc21)c1c(N)n(Cc2ccccc2)c(=O)[nH]c1=O
    3.1% | 0.9%
- Cc1noc(C)c1CSCC(=O)Nc1cc(Cl)ccc1N1CCOCC1
    -19.7% | -5.9%
- COc1ccccc1C(=O)Nc1cc(C)ccc1NC(=O)c1ccco1
    -4.7% | 18.1%
- Cc1ccc(OCC(O)CNS(=O)(=O)c2ccccc2C(=O)N2CCCCC2)cc1 (stereo not given)
    -28.0% | -9.9%
- COC(=O)c1cc(C(=O)c2cccc(Cl)c2Cl)cn1C
    -8.7% | -15.5%
- CCN(Cc1cc2cc(OC)ccc2[nH]c1=O)C(=O)Cc1ccc(OC)cc1
    ? | -15.4%
- CC(=O)c1cn(CC(=O)Nc2ccc(C)c(C)c2)c2ccccc12
    6.6% | -3.4%
- O=C(CCN1C(=O)C2C3C=CC(C3)C2C1=O)N1CCN(c2ccccc2F)CC1 (stereo not given)
    2.7% | 29.6%
- O=[N+]([O-])c1ccc(SCCc2ccccn2)cc1
    -14.9% | -2.2%
- Cc1ccc(-n2c(SCC(=O)N3CCOCC3)nnc2-c2cccnc2)cc1
    1.4% | -4.5%
- C/C(=N\NS(=O)(=O)c1ccc(Br)cc1)c1cccs1
    -22.8% | -5.4%
- CCOc1ccc(C(=O)Nc2ccc(NC(=O)c3ccccc3)cc2)cc1Br
    -11.7%&-16.9% | -6.7%&20.3%
- CCCn1c(SCC(=O)NC(C)(C)C)nnc1C(C)C
    -2.9% | -2.3%
- CCCn1c(NC(=O)c2ccc([N+](=O)[O-])o2)nc2ccccc21
    20.6µM* | 11.6%
- Nc1ccc(-n2cnc3cc([N+](=O)[O-])ccc32)cc1
    ? | 3.0%
- Cn1nccc1C(=O)NC1CCCc2c1cnn2-c1ccc(F)cc1F (stereo not given)
    1.46µM* | -11.7%
- Cc1[nH]c(C)c(S(=O)(=O)Nc2ccc(OC(F)(F)F)cc2)c1C(=O)N1CCCCC1
    20.6µM* | -16.2%
- Cc1cc(NC(=O)CSc2nccn2-c2ccc([N+](=O)[O-])cc2)no1
    -3.4% | 0.8%
- O=S(=O)(NCCc1csc(-c2cccnc2)n1)c1cccs1
    ? | -2.9%
- CCN(C1CCS(=O)(=O)C1)S(=O)(=O)c1ccc(OC)c(OC)c1 (stereo not given)
    0.3% | -2.0%
- CCS(=O)(=O)N1CCCC(C(=O)NCc2ccc(C)cc2)C1 (stereo not given)
    -12.6% | -8.2%
- COC(=O)Cn1c2ccccc2c2nc3ccccc3nc21
    -21.3% | -1.0%
- COC(=O)Nc1ccc(S(=O)(=O)N(C)C)cc1
    ? | -3.7%
- CCCC(=O)Nc1ccc(C#Cc2ccccc2)cc1
    1.3% | 0.0%

# Other records:
# Each structure is followed by: TDP1 cell CPT | FEN1 inhibitor
- COc1ccccc1/C=C\C(=O)NCC(=O)N/N=C(/C)c1cccc([N+](=O)[O-])c1
    ? | -2.8%
- COc1nn(CC(=O)N2N=C(C)CC2(O)C(F)(F)F)cc1[N+](=O)[O-] (stereo not given)
    -20.4% | -12.1%
- O=C(NCCN1CCCC1)C1CC(=O)N(C2CCCCC2)C1 (stereo not given)
    10.8% | 9.7%
- COC(=O)c1sccc1NC(=S)N1CCCCC1C (stereo not given)
    -7.0% | 44.9%[activator]
- Cc1cc(NS(=O)(=O)c2ccc(NC(=O)C(C)Oc3ccc(C(C)C)cc3)cc2)no1 (stereo not given)
    -3.9% | 1.0%
- CC#CC(=O)N1CCC(CCc2ccccc2)(C(=O)OCC)CC1
    -5.8% | -7.7%
- CC(=O)C1=C(O)CCCC1=NCc1nc2ccccc2[nH]1
    1.7% | 3.6%
- O=C(COC(=O)C1(c2ccccc2F)CCCC1)NCc1cccs1
    ? | -6.7%
- CCNC(=O)C(C)Sc1ccc(Cl)cc1 (stereo not given)
    -11.7% | 1.1%
- O=C(CCN1C(=O)C2CCCCC2C1=O)Nc1cc(F)ccc1F (stereo not given)
    -22.9% | 3.0%
- O=C(COC(=O)c1ccco1)Nc1ccc2c(c1)OCO2
    -12.9% | 1.0%
- O=C(CSc1nnc(CNc2ccc(F)cc2)n1Cc1ccco1)NC1CC1
    -1.6% | 7.1%
- CCc1ccc(CN(C(=O)c2cc3ccccc3oc2=O)C2CCS(=O)(=O)C2)cc1 (stereo not given)
    -25.5%&-18.5% | 12.3%&-1.7%
- Cc1ccc(-n2ncc3c(N4CCC(C(N)=O)CC4)ncnc32)c(C)c1
    ? | 5.2%
- Nc1ccc2c(c1)OC1(CCCC1)O2
    -7.9% | -10.6%
- CC(=O)[C@H]1CC[C@H]2[C@@H]3C=CC4=CC(=O)CC[C@@]4(C)[C@@H]3CC[C@]12C
    14.6µM*! | -17.1%
- O=C(O)C(Cc1c[nH]c2ccccc12)N1C(=O)C2C3c4ccccc4C(c4ccccc43)C2C1=O (stereo not given)
    -0.5% | 11.8%
- COc1ccc(CCN2CCCn3c2nc2c3c(=O)n(C)c(=O)n2C)cc1OC
    ? | 5.2%
- COc1ccc(CN2CCNC(=O)C2CC(=O)NCCCn2cccn2)cc1C (stereo not given)
    10.6% | 0.5%
- NC(=O)NOCc1c(Cl)cccc1Cl
    10.5% | -15.9%
- CCc1nn(CC(=O)N2CCN(CC)CC2)c(=O)c2cc3sccc3n12
    -19.7% | 15.4%
- COc1cccc(C(C#N)N2CCOCC2)c1 (stereo not given)
    -16.7% | 5.0%
- COc1ccc(C(=O)C[n+]2cccc(C(N)=O)c2)cc1
    -4.0% | -13.0%
- Cc1cc(NC(=O)CCC(=O)N(CCc2ccccc2)C(C(=O)NC2CCCC2)c2ccco2)no1 (stereo not given)
    ? | -1.2%
- CN(C)S(=O)(=O)N(CC(=O)NCCSCc1ccccc1)c1ccccc1
    11.3%&-23.2% | -2.7%&-8.7%
- CCOC(=O)C(C)Sc1nnc(NC(=O)c2cccc([N+](=O)[O-])c2C)s1 (stereo not given)
    -10.9% | 6.5%
- Cn1c2ccccc2c2c(C(=O)N3CCN(c4ccc(F)cc4)CC3)cn(C3CCCC3)c(=O)c21
    ? | -12.4%
- CCCc1cc(=O)oc2c(C)c(OCC(=O)N3CCC(C(=O)O)CC3)ccc12
    -4.5% | 0.9%

# This is a subset, and most or all hits are left out here.
